Assay outcomes (PubChem BioAssay)
GIRK2 activ = opens human GIRK2 potassium channels | P48051 | HEK293-GIRK2 thallium flux, Thallos fluorescence | calls only for hits at 25 µM | 63,000 tested, 0.05% active;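 active = among the strongest 0.2% of first-round signals and kept after retests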;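 note: first round at about 10 µM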
Target sequence (P48051 whole entry, looked up): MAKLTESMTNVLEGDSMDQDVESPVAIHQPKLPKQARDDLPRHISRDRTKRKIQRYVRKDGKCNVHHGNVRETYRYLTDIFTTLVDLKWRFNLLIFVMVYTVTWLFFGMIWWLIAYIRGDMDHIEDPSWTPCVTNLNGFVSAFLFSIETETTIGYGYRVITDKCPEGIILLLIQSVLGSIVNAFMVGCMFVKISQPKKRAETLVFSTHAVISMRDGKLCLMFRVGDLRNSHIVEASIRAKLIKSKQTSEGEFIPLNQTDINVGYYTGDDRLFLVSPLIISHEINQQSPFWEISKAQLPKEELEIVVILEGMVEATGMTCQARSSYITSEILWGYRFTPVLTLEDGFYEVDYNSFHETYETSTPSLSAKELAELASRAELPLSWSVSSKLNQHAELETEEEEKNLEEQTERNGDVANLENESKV
Calls only; i = inactive.

item	SMILES	GIRK2 activ
1	CC1=C(C(=O)OC(C)C)C(c2ccc(N(C)C)cc2)NC(=O)N1C (centres undefined)	i
2	COCC(=O)NCc1n[nH]c(=O)c2ccccc12	i
3	COCCn1c(=O)c2c(nc3n(-c4ccc(C)cc4)c(-c4ccccc4)cn23)n(C)c1=O	i
4	O=c1c(Oc2ccccc2Br)coc2c3c(ccc12)OCN(C1CC1)C3	i
5	CCc1cccc(NC(=O)Cn2cccc(S(=O)(=O)N3CCCCCC3)c2=O)c1	i
6	CN1CCN(C(CC(=O)Nc2cccc(C(F)(F)F)c2)C(=O)O)CC1 (centres undefined)	i
7	O=C(c1ccsc1)N1CCN(CCNS(=O)(=O)c2ccc3c(c2)OCCO3)CC1	i
8	COc1ccc(OC)c(-c2cc3ccc(OCC(=O)OC(C)C)cc3oc2=O)c1	i
9	Cc1onc(-c2ccccc2Cl)c1C(=O)N1CC2CC1C(=O)O2 (centres undefined)	i
10	CCCOC(=O)CNc1nc2c(c(=O)[nH]c(=O)n2C)n1CC(O)COc1ccccc1 (centres undefined)	i
11	N#Cc1c(NC(=O)C2CCN(S(=O)(=O)c3ccc(F)cc3)CC2)sc2c1CCC2	i
12	COc1ccc(S(=O)(=O)N2CCCOC2CNC(=O)C(=O)NC2CCCCCC2)cc1OC (centres undefined)	i
13	CCOc1ccccc1NC(=O)CSC1=Nc2ccccc2N=C(c2ccccn2)C1	i
14	CS(=O)(=O)c1cccc2sc(N3CCN(C(=O)/C=C/c4ccccc4)CC3)nc12	i
15	COc1ccc(OC)c(-c2cc(C(=O)Nc3ccc(-n4cnnn4)cc3)[nH]n2)c1	i
16	CS(=O)(=O)N1CCN(CCNC(=O)Nc2ccc3c(c2)OCO3)CC1	i
17	CCn1ncc(/C=C/C(=O)c2ccc(I)cc2)c1C	i
18	c1ccc(-c2noc(-c3cc(-c4ccco4)n[nH]3)n2)cc1	i
19	O=C(NCC(F)(F)F)C1CCN(C(=O)c2cc(C3CC3)on2)CC1	i
20	O=C(CCSc1ccccc1)N1CCN(Cc2nc3ccccc3[nH]2)CC1	i
21	Cc1cc(C)c(S(=O)(=O)NC(C)Cc2ccco2)cc1C (centres undefined)	i
22	COc1ccccc1CNC(=O)c1ccc2c(=O)n(-c3ccc(C)c(C)c3)c(N3CCOCC3)nc2c1	i
23	Cc1cccc(C)c1NC(=O)Cn1cccc(S(=O)(=O)N2CCC(C)CC2)c1=O	i
24	O=C(CN1CCC(COCc2ccc(Cl)cc2)CC1)NCc1ccc(F)cc1	i
25	CCCS(=O)(=O)c1ccc(N2CCN(c3ccc(Cl)cc3)CC2)nn1	i
26	Cc1ccc(C(=O)N2CCN(c3oc(/C=C/c4ccc(F)cc4)nc3C#N)CC2)cc1	i
27	O=C(Cc1ccccc1)NC1CC(O)C(CO)C1 (centres undefined)	i
28	COc1cc(S(=O)(=O)N2CCN=C2c2ccccc2)ccc1F	i
29	COc1ccc(Cl)cc1NC(=O)CCCn1cnc(-c2ccccc2)cc1=O	i
30	COc1ccc(Br)cc1/C=C1\Oc2cc(OC(=O)N3CCOCC3)ccc2C1=O	i
31	COc1ccccc1NC(=O)Cn1nc(-c2ccccc2)c2sc(N3CCOCC3)nc2c1=O	i
32	COc1cccc(-n2nnc(-c3nnc(-c4ccncc4)o3)c2C)c1	i
33	COc1cccc(Oc2nccn3c(=O)n(CC(=O)Nc4c(C)cc(C)cc4C)nc23)c1	i
34	CC(C)(CO)CNC(=O)c1ccc2[nH]c(O)c(N=Nc3ccc(S(N)(=O)=O)cc3)c2c1	i
35	CSc1cccc2sc(N3CCN(c4ccccc4O)CC3)nc12	i
36	CCC(C)NC(=O)c1sccc1S(=O)(=O)N(C)c1ccc(C)c(C)c1 (centres undefined)	i

Of the compounds above, these contain bromine.
item	SMILES	GIRK2 activ
4	O=c1c(Oc2ccccc2Br)coc2c3c(ccc12)OCN(C1CC1)C3	i
30	COc1ccc(Br)cc1/C=C1\Oc2cc(OC(=O)N3CCOCC3)ccc2C1=O	i

Next compounds follow:
item	SMILES	GIRK2 activ
37	Cn1nc(-c2ccccc2)cc1C(=O)N1CCC(c2nn(C)c(=O)n2-c2ccccc2)CC1	i
38	COc1cccc(N2CC(C(=O)N3CC(c4nc(-c5cnccn5)no4)C3)CC2=O)c1 (centres undefined)	i
39	NS(=O)(=O)c1ccc(NC(=O)C2CSCCC(=O)N2)cc1 (centres undefined)	i
40	CS(=O)(=O)NCC1CCC(C(=O)NCCCn2ccnc2)CC1 (centres undefined)	i
41	Cc1nnsc1C(=O)N1CCN(Cc2nc3ccccc3n2Cc2ccccc2)CC1	i
42	COC(=O)c1cc(C(C)(C)C)n2nc(C)c(-c3ccccc3)c2n1	i
43	Cc1onc(-c2ccccc2Cl)c1C(=O)N1CCN(Cc2nc(C3CC3)cs2)CC1	i
44	Cc1noc(CNC(=O)CN(C)c2nc3c(C)ccc(C)c3s2)n1	i
45	CCN(CC)S(=O)(=O)c1ccc(-c2nc(C#N)c(NCc3ccc4c(c3)OCO4)o2)cc1	i
46	O=C(Nc1ccc(CC(=O)N2CCOCC2)cc1)Nc1cccs1	i
47	COc1cc(NC(=O)Cn2nnc3ccccc32)ncn1	i
48	COc1nn(C)cc1C(=O)N1CCN(c2nc3ccc([N+](=O)[O-])cc3s2)CC1	i
49	Cc1ccc(Cl)cc1NC(=O)C(=O)NCCCN1CCOCC1	i
50	Cc1ccc(Cn2c(CCNC(=O)c3ccco3)nc3ccccc32)cc1	i
51	Cc1noc(CNC(=O)C2c3ccccc3Oc3ccccc32)n1	i
52	CS(=O)(=O)N1CCN(C(=O)C2CCN(C(=O)NCc3cccs3)CC2)CC1	i
53	O=c1c2c(CO)c(-c3ccc(F)cc3)nn2ccn1Cc1ccc(Br)cc1F	i
54	Cc1ccc(CNC(=O)C23CCC(C)(C(=O)C2)C3(C)C)cc1 (centres undefined)	i
55	Cc1cc(C)n(-c2cc(NC(=O)COc3cccc(C(F)(F)F)c3)ncn2)n1	i
56	CCOc1ccc(-n2c(N3CCOCC3)nc3cc(C(=O)OC)ccc3c2=O)cc1	i
57	COc1ccc(SCC2CCN(C(=O)c3ccccc3OC)CC2)cc1	i
58	CCOC(=O)CCC(=O)N1CCC(Oc2ncccc2Cl)CC1	i
59	CCCNC(=O)Cn1nc2c(c1NC(=O)/C=C\c1ccc3c(c1)OCO3)CSC2	i
60	O=C(CSC1=NC2(CCCCCC2)Nc2ccccc21)Nc1ccccc1C(F)(F)F	i

Filtered by structure: the compounds so far with a furan ring, fused or not.
item	SMILES	GIRK2 activ
18	c1ccc(-c2noc(-c3cc(-c4ccco4)n[nH]3)n2)cc1	i
21	Cc1cc(C)c(S(=O)(=O)NC(C)Cc2ccco2)cc1C (centres undefined)	i
50	Cc1ccc(Cn2c(CCNC(=O)c3ccco3)nc3ccccc32)cc1	i

(continued)
item	SMILES	GIRK2 activ
61	CCCn1c(=O)c2ccc(C(=O)NCC(C)C)cc2n2c(=O)n(Cc3ccc(Cl)cc3)nc12	i
62	COC(=O)N1CCc2ccccc2C1C(=O)Nc1ccccc1C(F)(F)F (centres undefined)	i
63	O=C(CCc1ccccc1)Nc1cnc(N2CCN(c3ccccc3)CC2)nc1	i
64	COc1ccc(S(=O)(=O)N2CCCOC2CNC(=O)C(=O)NCCC2=CCCCC2)cc1C (centres undefined)	i
65	O=S(=O)(Cc1cc(F)ccc1F)NCCN1CCN(c2ccc(Cl)cc2)CC1	i
66	COCCNC(=O)c1cc2c(=O)n3cccc(C)c3nc2n(CCO)c1=N	i
67	CCOc1ccccc1C(=O)NCC1(c2ccc(F)cc2)CC1	i
68	COc1ccc(-c2nc(-c3cn(-c4cccc(Cl)c4)nn3)no2)c(OC)c1	i
69	Cc1ccc(-c2nnc(Cc3nc(-c4ccc(OC(C)C)cc4)no3)o2)cc1C	i
70	COc1cccc(CCNC(=O)C(=O)Nc2cccc(OC)c2)c1	i
71	c1ccc(COc2ccc(CN3CC(c4nc(-c5ncccn5)no4)C3)cc2)cc1	i
72	CCOC(=O)CCC(=O)N1CCC(Oc2cnccn2)CC1	i
73	O=c1n(CCNS(=O)(=O)c2ccc(Cl)s2)nc(C2CC2)n1-c1ccccc1	i
74	CC1(C)CC[C@]2(C(=O)OC3OC(CO)C(O)C(O)C3O)CC[C@]3(C)C(=CCC4[C@@]5(C)CCC(OC6OC(C(=O)O)C(O[C@@H]7OCC(O)C(O)[C@H]7O)[C@H](O)[C@@H]6O)C(C)(C)C5CC[C@]43C)C2C1 (some centres undefined)	i
75	CN(C)CC(O)COc1ccc(Br)cc1Br (centres undefined)	i
76	COc1cccc(C2c3c(oc4cc(OC)ccc4c3=O)C(=O)N2c2nnc(C)s2)c1 (centres undefined)	i
77	CC(C)CCn1c(=O)c2c(nc3n2CCN3Cc2ccco2)n(C)c1=O	i
78	CCCCn1c(=O)c2c(nc3n(CCO)c(C)cn23)n(C)c1=O	i
79	O=C(Nc1ccc(Cl)c(Cl)c1)c1ccc2nnsc2c1	i
80	CN(C)CC1COCCN1C(=O)C1CCC1 (centres undefined)	i
81	NC(=O)COc1ccc2c(c1)O/C(=C\c1ccc(Cl)cc1)C2=O	i
82	Cn1c(=O)[nH]c(=O)c2c1nc(NCc1ccccc1)n2CCCOc1ccccc1	i
83	O=C(c1ccccc1C(F)(F)F)N1CC(c2nc(-c3cccs3)no2)C1	i
84	O=C(Nc1cccc(-c2ccn[nH]2)c1)c1c[nH]c2ccccc12	i
85	CNC(=O)Cn1nnn(-c2ccc(NS(=O)(=O)c3ccc(C(C)=O)cc3)cc2)c1=O	i
86	Cc1ccc(-n2c(C)cn3c4c(=O)n(CCN5CCOCC5)c(=O)n(C)c4nc23)cc1	i
87	CCc1ccc(S(=O)(=O)c2nnn3c2nc(N2CCCC2)c2cc(Cl)ccc23)cc1	i
88	Cc1nnc(C2CCN(C(=O)c3c(-c4ccccc4Cl)noc3C)CC2)s1	i
89	N#C/C(=C\Nc1ccc2c(c1)OCO2)c1nc(-c2cc3cc(Cl)ccc3oc2=O)cs1	i
90	Cc1ccccc1NC(=O)NCC1CCN(C(=O)c2ccncc2)CC1	i
91	CSc1nnc(-c2ccccc2NC(=O)CCCN2C(=O)c3cccc4cccc(c34)C2=O)o1	i
92	O=C(Cc1noc2ccccc12)N1CCC(Oc2ccc(C(F)(F)F)cn2)CC1	i
93	O=C(O)CC(CC(=O)N1CCOCC1)c1cccs1 (centres undefined)	i
94	O=C(CCn1cnc2c([nH]c3ccccc32)c1=O)NCc1ccc(Cl)cc1	i
95	COc1cccc(NC(=O)N2CCN(S(=O)(=O)C3CC3)CC2)c1	i
96	O=C(NCC1(CO)CC1)C(=O)Nc1ccc(F)c(Cl)c1	i
97	Cc1cc(SCC(=O)Nc2ccc([N+](=O)[O-])cc2)n2nc(C)c(-c3ccccc3)c2n1	i
98	CCn1cc(C2NC(=S)NC(C)=C2C(=O)Nc2ccccc2)c(C)n1 (centres undefined)	i
99	O=S(=O)(Cc1cccc(F)c1)N1CCC(Cn2ccnc2)CC1	i
100	COc1ccc(S(=O)(=O)NCC(c2ccco2)N(C)C)cc1F (centres undefined)	i
101	CCOC(=O)c1c(C)n(C)c2ccc(OC(C)=O)cc12	i
102	COc1ccc(C(=O)Nc2ccc(C(F)(F)F)cc2)nn1	i
103	O=C(CN1CCN(CC(O)c2ccco2)CC1)NC1CCCC1 (centres undefined)	i
104	CC(C)Oc1ccc(C(=O)N2CCC(CSc3ccccn3)CC2)cc1	i
105	CCc1noc(-c2ccnc(SCC(=O)Nc3cccc(SC)c3)c2)n1	i
106	CCOC(=O)Cn1c(=O)c2c(nc3n(C(C)CC)c(C)cn23)n(C)c1=O (centres undefined)	i
107	O=C(Nc1ccc2c(c1)OCO2)N1CCC2(CC1)OCCS2	i
108	Cc1cccc(NC(=O)CN2CCN(c3ccccc3F)C2=O)c1C	i
109	O=C(C[n+]1ccccc1)c1cc2ccccc2oc1=O	i
110	CC(Cc1ccco1)NC(=O)C1(c2ccc(Cl)cc2)CCCC1 (centres undefined)	i
111	Cc1nc(CN2CCN(CC(O)c3cccs3)CC2)cs1 (centres undefined)	i
112	CCc1ccc2oc(=O)cc(CN3CCCCC3C)c2c1 (centres undefined)	i
113	C=C(C)C(=O)O[C@H]1C[C@@](C)(OC(C)=O)[C@@]2(O)CC[C@@](C)(O)[C@H](OC(C)=O)C23OC(=O)C(COC)=C13 (some centres undefined)	i
114	O=C(Cn1nc2c(Oc3ccc(Cl)cc3)nccn2c1=O)Nc1ccccc1	i
115	Cc1c(C(=O)Nc2ccc3c(c2)OCO3)nnn1-c1nc(-c2ccccc2)cs1	i
116	COc1ccc(NC(=O)Cn2ncn3nc(-c4ccc(C)c(C)c4)cc3c2=O)cc1OC	i
117	Cc1ccc(S(=O)(=O)c2c(C)nn(C(C)(C)C)c2OC(=O)CC2CCCCC2)cc1	i
118	O=C(CCSc1ccccc1)NCC1(O)CCOc2ccccc21 (centres undefined)	i
119	O=c1ccc(-c2ccc3c(c2)OCO3)nn1CCc1nc(-c2ccccc2Br)no1	i
120	COc1cc(S(=O)(=O)N2CCN(c3ccc(F)cc3)CC2)ccc1Cl	i

Shown with each value named: part of the list above
#116 COc1ccc(NC(=O)Cn2ncn3nc(-c4ccc(C)c(C)c4)cc3c2=O)cc1OC
- GIRK2 activ: i

#117 Cc1ccc(S(=O)(=O)c2c(C)nn(C(C)(C)C)c2OC(=O)CC2CCCCC2)cc1
- GIRK2 activ: i

#118 O=C(CCSc1ccccc1)NCC1(O)CCOc2ccccc21 (centres undefined)
- GIRK2 activ: i

(list continues)
item	SMILES	GIRK2 activ
121	COc1ccc(C(C)C)cc1S(=O)(=O)NCCN1CCN(S(=O)(=O)c2cc(C(C)C)ccc2OC)CC1	i
122	O=C(NCC(F)(F)F)c1nnn(-c2ccc(F)cc2)n1	i
123	CCOc1ccc2nc(NS(=O)(=O)c3cn(C)nc3C)sc2c1	i
124	Nc1nc(SCC(=O)c2ccc3c(c2)OCO3)n[nH]1	i
125	O=C(Nc1cnoc1)c1cccs1	i
126	O=C(CN1C(=O)CCC1=O)N1CCN(CCn2cccn2)CC1	i
127	Cc1ccc(C)c(C2=C(c3cn(C)c4ccccc34)C(=O)NC2=O)c1	i
128	O=C(Cc1ccsc1)NC1CCN(c2ccc(-c3cccc(F)c3)nn2)CC1	i

Not all compounds are listed; the hit share may differ from the screen's.
